High-throughput results: PubChem BioAssay, National Center for Advancing Translational Sciences (NCATS)
Rango complex inh – qHTS Assay for Inhibitors of Rango (Ran-regulated importin-beta cargo) - Importin beta complex formation; Rango CFP/YFP FRET sensor + importin beta, 45 min; Importin subunit beta-1 (Homo sapiens), Q14974; AID 540263, 2011; 340,000 tested, 0.031% active; Potency, µM (series often up to 92.2 µM), for inactives: at the highest dose inhibition of complex formation; active = rising FRET ratio curve, often small or poorly fitted; inconclusive = mostly compound fluorescence or quenching in the first reads; inactive = flat curves in all reads;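 note: potency is the fitted concentration of half-maximal effect; 0% = DMSO wells and 100% = buffer wells lacking importin beta; nearly all actives have a fitted effect of over 15% in size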
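FRET biosensor Rango (snurportin 1 IBB between N-terminal EYFP and C-terminal Cerulean), 50 nM in PBS/1 mM DTT/0.02% Tween-20/0.1% BSA, preincubated 5 min RT with compound; 0.125 microM importin beta added, 45 min RT, CFP/YFP FRET ratio read.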
Rango release inh – qHTS Assay for Inhibitors of RanGTP induced Rango (Ran-regulated importin-beta cargo) - Importin beta complex dissociation. Snurportin-1 (Homo sapiens) + GTP-binding nuclear protein Ran (Homo sapiens) + Importin …. Biochemical FRET Rango-importin beta, RanGTP-induced dissociation. Potency, µM (highest dose often 46.1 µM), inactives show top-dose activity change, negative = inhibition. 340,000 tested, 0.071% active. AID 540253, 2011; active means falling FRET ratio curve, often poorly fitted, with flat reads before Ran was added; inconclusive means other falling curves, or compound fluorescence or quenching; inactive means flat or rising ratio curve;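 note: potency is the fitted concentration of half-maximal effect; % of control where 0% means no effect; nearly all actives have a fitted effect of over 45% in size; -100% = wells without RanGTP and RCC1; the record marks most hits as doubtful in a second field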
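Recombinant Rango FRET biosensor (EYFP–snurportin 1 IBB–cerulean CFP10) at 0.1 uM premixed with 0.25 uM importin beta in PBS, 1 mM DTT, 0.02% Tween-20, 0.1% BSA. Compound added 5 min; RanGTP-RCC1 (0.6 uM Ran, 2 mM GTP, 0.2 uM RCC1) then triggers release, read at 45 min.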
miR-21 reporter – qHTS Assay for Modulators of miRNAs and/orActivators of miR-21; HeLa miR-21 FLuc reporter, luciferase, 48 h; Potency, µM (highest dose often 38.3 µM), for inactives: top-dose reporter change, positive = more light; 340,000 tested, under 10 active; AID 2288, 2010; active = well fitted rising curve with a large enough effect; inconclusive = small, poorly fitted or top-dose-only effect; inactive = no such curve, though single readings can be large or run the other way;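 note: % of control where 0% means no effect; miR-21 action dims this reporter so a rising signal means less miR-21 action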
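Compounds were titrated across several concentrations (up to approximately 40 uM) and incubated 48 hours with HeLa miR-21-FLuc reporter cells (miR-21 target sequence downstream of FLuc, endogenous miR-21). Readout was firefly luciferase luminescence after lytic detection reagent.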
GLA inh pH 4.5 – qHTS Assay for Inhibitors of Human alpha-Galactosidase at pH 4.5 | purified enzyme, 4-MU-alpha-Gal fluorescence, pH 4.5 | AID 1467, 2008 | activity change, negative = inhibition, % at 105 µM | 230,000 tested, under 10 active; inconclusive = small, poorly fitted or top-dose-only inhibition, or a rising curve; inactive = flat fitted curve, though single readings scatter; no compound was filed as active;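 note: 0% = full activity with enzyme and -100% = basal without enzyme; dose as in the result columns while the protocol names 77 µM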
Target sequence (P06280 whole entry, looked up): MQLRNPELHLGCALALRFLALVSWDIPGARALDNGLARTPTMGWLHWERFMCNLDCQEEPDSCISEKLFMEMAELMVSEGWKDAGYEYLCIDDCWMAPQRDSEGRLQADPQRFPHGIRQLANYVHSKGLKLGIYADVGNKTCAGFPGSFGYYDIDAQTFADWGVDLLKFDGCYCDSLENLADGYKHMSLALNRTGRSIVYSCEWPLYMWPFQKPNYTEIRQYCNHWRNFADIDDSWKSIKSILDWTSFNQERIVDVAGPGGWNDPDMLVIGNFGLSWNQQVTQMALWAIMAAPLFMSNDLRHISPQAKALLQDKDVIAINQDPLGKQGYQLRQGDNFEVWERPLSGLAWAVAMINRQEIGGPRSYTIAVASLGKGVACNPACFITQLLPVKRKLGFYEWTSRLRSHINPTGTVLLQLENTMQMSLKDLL
Active calls of the source: *; u = inconclusive; x = no result given; & = joins results of further samples; [ ] = remark or other dose. Some of the compounds tested, so the mix of outcomes need not match the whole.

#	Rango complex inh	Rango release inh	miR-21 reporter	GLA inh pH 4.5	Compound
1	2.4%	13%	1%	x	CCOc1ccccc1CNC(=O)CCC(=O)N1Cc2ccccc2Oc2ncccc21
2	-0.5%	6%	-19%	1	Clc1ccc(-c2c[nH]c3ccccc23)nn1
3	5.3%	15%	0%	-5	COC(=O)/C(=C(/F)Sc1cc(C)c(O)c(C)c1)C(F)(F)F
4	1.7%	3%	-25%	-2	CC(=O)Nc1cccc2c1C(=O)N(c1ccc(C)cc1)C2=O
5	1.2%	24%	2%	x	CC1(C(=O)NNC(=O)c2cccc([N+](=O)[O-])c2)CC1(Br)Br (stereo not given)
6	u	2%	0%	-1	Cc1ccc(S(=O)(=O)NCCC(=O)N2CCN(Cc3ccccc3)CC2)cc1
7	u	-21%	-2%	22	O=C(C1CCCN1S(=O)(=O)c1cccc2cccnc12)N1CCN(c2ccccc2)CC1 (stereo not given)
8	-5.3%	0%	-2%	-1	Cc1cc(OCC(=O)NC2CCN(C)CC2)ccc1[N+](=O)[O-]
9	-5.8%	-1%	1%	6	Cc1cccc(NCc2ccccc2)c1
10	-5.1%	37%	-5%	6	COc1ccc(-c2nc3nc(C)c(Cc4ccccc4)c(=O)n3[nH]2)cc1
11	-0.9%	3%	x	x	C=C(C)C(=O)N1CCN(C(=O)C(=C)C)c2ccccc21
12	3.8%	-9%	-50%	x	COc1ccccc1N1CCN(/N=C/c2ccc(O)cc2O)CC1
13	-4.6%	8%	5%	-5	Cc1cc(SCC(=O)NC(=O)c2cccn2C)nc2ccccc12
14	-5.3%	0%	x	x	O=C(NC1CCCCC1)c1cccc2c1C(=O)c1ccc(-c3ccc(OC(F)(F)F)cc3)cc1S2(=O)=O
15	5.3%	1%	0%	14	COc1ccc2nc3ccccc3nc2c1NC(=O)c1ccc(Br)cc1

Pulled by structure from the entries so far:
#	Rango complex inh	Rango release inh	miR-21 reporter	GLA inh pH 4.5	Compound
5	1.2%	24%	2%	x	CC1(C(=O)NNC(=O)c2cccc([N+](=O)[O-])c2)CC1(Br)Br (stereo not given)
10	-5.1%	37%	-5%	6	COc1ccc(-c2nc3nc(C)c(Cc4ccccc4)c(=O)n3[nH]2)cc1

Remaining list, next part:
#	Rango complex inh	Rango release inh	miR-21 reporter	GLA inh pH 4.5	Compound
16	1.5%	1%	-45%	-3	CCCn1nnc(NC(=O)c2ccc(Br)cc2)n1
17	4.4%	-9%	-2%	x	Cc1cccc(C)c1NC(=O)Cn1nc(-c2ccc(Cl)s2)ccc1=O
18	0.2%	2%	-7%	x	CC(C)COc1ccc(C(=O)Nc2ncn[nH]2)cc1
19	2.1%	14%	x	x	CCCCN(C(=O)C1=CC=CN2CCS(=O)(=O)N=C12)c1ccccc1
20	-1.0%	9%	1%	-1	Cn1nc2sc3ccccc3n2c(=O)c1=O
21	-4.6%	-15%	-2%	1	Cc1nn2c(=O)c3c4c(sc3nc2n1-c1ccccc1)COC(C)(C)C4
22	-2.1%	-5%	-1%	0	COc1ccc(N2CC(C(=O)OCC(=O)c3ccccc3)CC2=O)cc1 (stereo not given)
23	0.0%	-13%	11%	-14	CC(=O)N1CCN(c2ccccc2NC(=O)COc2cc(C)ccc2C(C)C)CC1
24	-1.2%	-28%	x	x	COCc1cc(C)n(CC(=O)Nc2ccc(N3CCOCC3)cc2)c(=O)c1C#N
25	-5.5%	-5%	-17%	x	CC(C)(C)N(Cc1ccccc1)C(=O)CN1C(=O)c2ccccc2C1=O
26	u	-17%	-10%	x	O=C(N/N=C/c1cc([N+](=O)[O-])ccc1O)c1ccc(COc2ccc3c(c2)CCC3)o1
27	4.7%	-12%	u	-3	Cc1cccc(NC(=O)CN(c2ccc(F)cc2)S(C)(=O)=O)c1
28	-0.8%	3%	-36%	-6	CCOC(=O)c1nc2ccccc2s1
29	-1.3%	6%	x	x	Cc1ccc(NC(=O)C(c2ccccc2)N2CCN(C(=O)c3ccco3)CC2)cc1Cl (stereo not given)
30	-4.6%	0%	1%	3	O=C(NCc1cccnc1)NC(C(F)(F)F)C(F)(F)F

Three entries out of the list, ordered by heavy-atom count, descending.
#	Rango complex inh	Rango release inh	miR-21 reporter	GLA inh pH 4.5	Compound
19	2.1%	14%	x	x	CCCCN(C(=O)C1=CC=CN2CCS(=O)(=O)N=C12)c1ccccc1
27	4.7%	-12%	u	-3	Cc1cccc(NC(=O)CN(c2ccc(F)cc2)S(C)(=O)=O)c1
30	-4.6%	0%	1%	3	O=C(NCc1cccnc1)NC(C(F)(F)F)C(F)(F)F

Additional structures.
#	Rango complex inh	Rango release inh	miR-21 reporter	GLA inh pH 4.5	Compound
31	0.0%	2%	x	7	COC(=O)[C@@]1(Cc2ccccc2)C=C[C@@H](C)N1C(C)=O
32	4.6%	1%	-2%	-2	CCOC(=O)N1CCN(C(=O)CN2C(=O)COc3ccc(C(C)(C)C)cc32)CC1
33	-2.4%	2%	0%	-6	CCOC(=O)c1sc2ncn(C(CC)C(=O)OC)c(=O)c2c1C (stereo not given)
34	4.5%	2%	0%	x	O=C(CC(=O)Nc1ccc(Br)cc1)Nc1ccc(Br)cc1
35	u	-27%	-15%	u	N#Cc1cnn2c3c(cnc12)C(=O)N1CCc2ccccc2C1C3 (stereo not given)
36	-0.3%	12%	-7%	0	CCCCNCc1cc(Br)c(OCc2cccs2)c(OC)c1
37	2.0%	-7%	-58%	-3	Cc1ccc(/C=N/NC(=O)c2ccoc2C)s1
38	-1.0%	-3%	3%	-2	CC(C)(C)NC(=O)/C(=C/c1cccnc1)NC(=O)c1ccco1
39	0.0%	-8%	-7%	-1	CCOc1ccc(C2CC(c3ccccc3)Nc3nc(N)nn32)cc1 (stereo not given)
40	-0.3%	3%	-60%	2	Cc1cccc(/C(N)=N/OC(=O)COc2ccccc2Cl)c1
41	-0.1%	0%	-4%	-5	O=C(CNS(=O)(=O)c1cccs1)N1CCCC1
42	-3.1%	0%	-15%	0	COc1ccccc1CNc1nc2nc(C)c(C)c(=O)n2[nH]1
43	4.1%	10%	-25%	5	CCOC(=O)CNC(=O)CSc1nnc(NC(=O)c2ccccc2Cl)s1
44	u	-24%	-16%	x	COc1cccc(C(N)=O)c1OC(=O)Cc1ccccc1F
45	4.9%	14%	16%	x	Cc1ccn(CC(=O)NC2CCCN(Cc3ccc(CC(C)C)cc3)C2)n1 (stereo not given)
46	-1.8%	16%	-3%	3	CN(CC(=O)O)c1ccc(C(F)(F)F)cc1[N+](=O)[O-]
47	u	u	-7%	-13	CN1/C(=C\C=Nc2cc(S(=O)(=O)N3CCOCC3)ccc2N2CCOCC2)C(C)(C)c2ccccc21
48	-1.9%	2%	-5%	x	CCCCNC(=S)N(CCN(C)C)Cc1cc2cc3c(cc2[nH]c1=O)OCCO3
49	-0.2%	-6%	-7%	-3	Cc1ccc(CNc2oc(-c3ccco3)nc2S(=O)(=O)c2ccccc2)cc1
50	-0.1%	-5%	-11%	-8	CCCCc1c(C)c2cc(C)ccc2[nH]c1=O
51	u	u	-3%	x	Cc1cc(C)c2cc(C#N)c(N3CCCN(C(=S)NCCCN(C)C)CC3)nc2c1
52	-1.2%	-5%	-1%	0	COc1ccc(OCc2nc3c4c(ncn3n2)-c2ccccc2CC42CCCC2)cc1
53	1.6%	26%	-10%	1	Cc1ccc(NC(=O)C2CCCNC2=O)nc1 (stereo not given)
54	0.6%	-4%	x	x	O=C(CN1C(=O)C(=O)N(Cc2ccco2)C1=O)Nc1ccc(F)c(F)c1F
55	-4.9%	1%	u	6	c1ccc(-c2ccc(-c3nc(-c4ccccn4)no3)cc2)cc1
56	0.1%	-11%	x	x	CC(=O)OC1CC2(C)C(CCC2(O)C(C)=O)C2CCC3C(Cl)C(=O)CCC3(C)C12 (stereo not given)
57	1.3%	18%	x	x	Cc1cnc(C(=O)OCc2nc3ccccc3o2)cn1
58	-5.4%	-3%	6%	x	COc1ccc(CNC(=O)C[C@H]2C(=O)N(c3ccccc3)C[C@@H]2Cc2ccccc2)cc1
59	3.8%&-0.8%	15%&9%	2%&2%	10&8	COc1cc(C(=O)OC(C)CN2CCOCC2)cc(OC)c1OC (stereo not given)
60	-9.1%	-10%	-4%	-3	Cc1ccc(-c2ccc(CCC(=O)O)n2C(C)C)cc1

Of the compounds above, these contain a nitro group on carbon.
#	Rango complex inh	Rango release inh	miR-21 reporter	GLA inh pH 4.5	Compound
5	1.2%	24%	2%	x	CC1(C(=O)NNC(=O)c2cccc([N+](=O)[O-])c2)CC1(Br)Br (stereo not given)
8	-5.3%	0%	-2%	-1	Cc1cc(OCC(=O)NC2CCN(C)CC2)ccc1[N+](=O)[O-]
26	u	-17%	-10%	x	O=C(N/N=C/c1cc([N+](=O)[O-])ccc1O)c1ccc(COc2ccc3c(c2)CCC3)o1
46	-1.8%	16%	-3%	3	CN(CC(=O)O)c1ccc(C(F)(F)F)cc1[N+](=O)[O-]

(more compounds)
#	Rango complex inh	Rango release inh	miR-21 reporter	GLA inh pH 4.5	Compound
61	-0.5%	-24%	-9%	-3	OC(COc1ccc(Cl)cc1)CN1CCCCC1 (stereo not given)
62	-4.3%	-1%	2%	-10	COc1ccc(C(=O)Nc2ccc(S(=O)(=O)N3CCCC3)cc2)cc1
63	2.9%	-1%	-4%	x	Cc1ccc(C(=O)CCS(=O)(=O)c2ccc(Br)cc2)cc1
64	-1.3%	0%	8%	x	O=C(c1ccc(F)cc1)C1CCN(C(=O)c2ccccc2F)CC1
65	3.4%	1%	-2%	-7	CCN(CC)c1ccc(C(=O)N/N=C/c2ccc(OC)cc2OC)cc1
66	0.7%	17%	5%	9[21.1 µM]	COc1cc2c(=O)n(CCCC(=O)NCC3CCCO3)c(=O)n(CC(=O)c3ccc(F)cc3)c2cc1OC (stereo not given)
67	-2.6%	-16%	-17%	x	COC(=O)Nc1ccc2c(c1)Nc1ccccc1CC2
68	2.8%	21%	-7%	-5	CCn1ccc2cc(OC)ccc2c1=S
69	-1.4%	-4%	-14%	-1	O=C(CSc1ccc(-c2ccc(F)cc2)nn1)Nc1ccc2c(c1)OCCO2
70	3.8%	11%	-11%	7	O=C(NCCCO)NC12CC3CC(CC(C3)C1)C2
71	-1.3%	-1%	0%	0	O=C(Nc1ccc(Cl)cc1)Nc1ccccc1Sc1ncc([N+](=O)[O-])s1
72	-0.4%	9%	-1%	-3	C=CCn1c(C)cc(C(=O)COC(=O)/C=C/c2ccc(OC)cc2)c1C
73	u	u	-4%	20	O=C1NC(c2ccco2)Nc2sc3c(c21)CCN(Cc1ccccc1)C3 (stereo not given)
74	-0.2%	-13%	-3%	7	O=C(CCCOc1ccc(Cl)cc1Cl)NCc1ccncc1

Complete entries, quoted from the list:
Listed for Cc1ccc(C(=O)CCS(=O)(=O)c2ccc(Br)cc2)cc1 → Rango complex inh: 2.9%; Rango release inh: -1%; miR-21 reporter: -4%; GLA inh pH 4.5: x
Listed for COC(=O)Nc1ccc2c(c1)Nc1ccccc1CC2 → Rango complex inh: -2.6%; Rango release inh: -16%; miR-21 reporter: -17%; GLA inh pH 4.5: x
